TAR Tat displ = HIV-1 TAR-Tat binding disruption | HIV-1 TAR RNA, Tat peptide displacement FRET; stronger effect = higher value | z-score (no concentration beside the values) | hit rate 0.6% among 100,000;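 also: score is relative to mean and SD of negative controls; some compounds called inactive have numbers as strong as hits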
CDC25B CDK2 inh = human CDC25B-CDK2/CyclinA binding inhibition; P30305+P24941; hit rate 0.72% among 94,000; AID 1259370; z-score (concentration not given with the values); HTRF CDC25B-CDK2/CyclinA binding, anti-His/anti-Flag; stronger effect = higher value;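 also: score is relative to mean and SD of negative controls; strong numbers were not always called active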
The depositor's hits bear a star; . = no result given.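 The calls were made as follows: active = z-score from 3 up in half or more of its runs; inactive = the rest.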 Rows are unselected; overall some 0.9% were active at least once.

SMILES	TAR Tat displ	CDC25B CDK2 inh
CCOC(=O)N1CCN(c2c(NCCCOC(C)C)c(=O)c2=O)CC1	0.54	1.1
OC1(Cc2ccccc2)CCNCC1	-0.29	-1.1
C=CCn1c(=S)sc2c(N/N=C/c3ccco3)ncnc21	.	-2
CC(=O)c1sc(-c2ccccc2)cc1NC(=O)c1ccccc1	.	-0.58
Cc1cc(C)c(-c2c(N3CCC(N4CCCCC4)CC3)c(=O)c2=O)cc1C	0.37	.
O=S(=O)(Nc1ccc(Br)cc1)c1ccc2nc(-c3ccccc3)[nH]c2c1	.	-1.6
Cc1ccc(Nc2nc(N3CCCC3)nc3c2cnn3C)cc1Cl	1.5	.
Cc1cccc(-n2c(SCc3cc(=O)n4cc(Br)ccc4n3)nc3[nH]ncc3c2=O)c1	0.83	.
COC(=O)c1sccc1NC(=O)N1CCCC1c1ccco1 (configuration not stated)	0.88	-1.5
O=C(c1cccs1)N1CCCCC1CCN1CCCCC1 (configuration not stated)	1.5	-1.6
COc1ccc(-c2cc(C)[nH]n2)cc1S(=O)(=O)N1CCc2ccccc21	1.7	.
C=CCN(C(=O)c1cn(C)c(=O)c2ccccc12)c1ccccc1	-0.88	-0.45
CCSCCOC(=O)C1=C(C)NC2=C(C(=O)CCC2)C1c1cc(Br)ccc1OC (configuration not stated)	1.6	-5.1
CC(C)CCNC(=O)C1(C)Cn2c(ccc2-c2ccco2)C(=O)N1CCC(C)C (configuration not stated)	1.1	.
Cc1ccc(-c2ccc(=O)[nH]n2)cc1S(=O)(=O)NCCc1cccs1	-0.78	-1.8
Cn1cnc([N+](=O)[O-])c1Sc1ccc(C(C)(C)C)cc1	.	-0.56
O=S(=O)(Oc1ncccc1C(F)(F)F)c1cccc(F)c1	.	-1.4
CN=C(N=Nc1cc(C(C)C)c(O)c(C(C)C)c1)c1ccccc1	.	-0.42
COc1cccc(CCN[C@H]2CS(=O)(=O)C[C@@H]2S(=O)(=O)c2ccc(Cl)cc2)c1	0.99	-0.67
CCOC(=O)N1CCC(Nc2c(NCCN(C)C)c(=O)c2=O)CC1	1.7	-0.93
Cc1ccc(S(=O)(=O)Nc2cc(C)c(O)c(S(=O)(=O)c3ccc(C)cc3)c2)cc1	.	-1.5
Cc1cc(C)c2oc(C(=O)Nc3sc4c(c3C(=O)NCC3CCCO3)CCCC4)cc(=O)c2c1 (configuration not stated)	1.2	0.33
Cc1ccc2c(c1)c(N1CCCC1=O)c(C(=O)NC1CCCC1)n2C	1.1	.
Cc1ccc(NC(=O)CSc2nnc(C)n3c2cc2oc(C)cc23)c(Cl)c1	0.54	.
Cc1csc(NC(=O)c2cnc3scc(C)n3c2=O)n1	.	-0.1

(continued)
SMILES	TAR Tat displ	CDC25B CDK2 inh
CC(=O)N1CCOc2ccc(S(=O)(=O)N3CCC(C(=O)NC4CCCC4)CC3)cc21	17*	.
CCOC(=O)c1c(S(=O)(=O)N2CCN(c3ccc(F)cc3)CC2)c(C)n(C)c1C	-0.46	.
O=c1cc(CSc2n[nH]c(-c3ccccc3)n2)nc2sccn12	-0.43	.
CCOc1cc(-c2noc(-c3cccs3)n2)ccc1OC	0.64	-1.9
COc1c2ccoc2cc2oc(=O)ccc12	0.87	.
O=C(Nc1nnc2n1CCS2)c1ccc(S(=O)(=O)N2CCCC2)cc1	0.15	.
C#CCn1c(-c2ccc(OC)c(OC)c2)nc2ccccc21	0.53	-0.24
CCCCC1CCC(C(=O)Nc2c3c(nn2-c2ccc(F)cc2)CS(=O)C3)CC1 (configuration not stated)	0.84	-2.1
COCC(C)Nc1sc(S(=O)(=O)c2ccccc2)nc1S(=O)(=O)c1ccc(C)cc1 (configuration not stated)	1.5	-1.7
Cc1ccc(-n2nnnc2SCc2ccc3c(c2)OCO3)cc1Cl	0.5	-3.1
CCN1CCc2c(sc(-n3cccc3)c2C(C)NC(=O)Nc2cc(OC)ccc2OC)C1 (configuration not stated)	-7	.
Cc1cc(C)cc(C(=O)n2nc(C)c(S(=O)(=O)N3CCCC3)c2C)c1	2	.
CC(=O)N1c2ccc(S(=O)(=O)NC(C)(C)C)cc2CC1C (configuration not stated)	1.8	.
COc1ccc(-c2cc(C)no2)cc1S(=O)(=O)NCc1cccs1	-1.6	.
O=S1(=O)c2ccccc2NC(c2ccccc2Cl)N1Cc1ccccc1 (configuration not stated)	.	1.4
O=C(Cn1cnc2sc3c(c2c1=O)CCCC3)NC1CCCCC1	.	0.29
O=C(CSc1ccsc1[N+](=O)[O-])Nc1cccc(Cl)c1	2	-1
COc1ccc(NC(=S)NNC(=O)CSCc2cccc3ccccc23)cc1	.	-0.19
CS(=O)(=N/C=C(\C#N)C(=O)c1ccco1)c1ccc(Cl)cc1 (configuration not stated)	.	-1.5
O=C(CN1C2=NCCN2c2ccccc21)c1ccccc1	2.8	0.78
O=C(O)CCC1CC(=O)Nc2ccccc21 (configuration not stated)	0.84	.
Cc1ccc(CCC(=O)Nc2c(C)n(C)n(-c3ccccc3)c2=O)o1	1.8	0.89
O=C(Cc1ccc(-c2ccccc2)cc1)NNC(=O)c1ccc(Cl)cc1	.	-2.4
CCOC(=O)COc1ccc2oc(C(C)(C)C)c(C(=O)OCC)c2c1	.	-0.74
Cc1c(CCOC(=O)CC23CC4CC(CC(C)(C4)C2)C3)sc[n+]1CC(=O)c1ccccc1	.	4.8

The listing continues:
SMILES	TAR Tat displ	CDC25B CDK2 inh
Cc1cc(-c2ccc(S(=O)(=O)N(C)C3CCCCC3)s2)on1	0.55	.
CC(C)Cc1nn2c(=O)cc(CSc3nnc(-c4ccccc4F)o3)nc2s1	1.6	0.12
COC(=O)c1cccc(N2C(=O)C3C4c5ccccc5C(C(C)=O)(c5ccccc54)C3C2=O)c1 (configuration not stated)	.	-1.9
COc1ccc(NS(=O)(=O)c2ccc3c(c2)oc(=O)n3C)c(OC)c1	0.73	-1.9
O=C(CSCc1cc(=O)n2ccsc2n1)Nc1ccc(F)cc1	-0.36	.
O=C(O)C1Nc2c(O)cccc2C2C=CCC12 (configuration not stated)	.	3.8
COc1ccc(CN(C(=O)c2nc(S(C)(=O)=O)ncc2Cl)C2CCS(=O)(=O)C2)cc1 (configuration not stated)	1.9	0.33
CCC12CN3CC(CC)(CN(C1)C3c1ccc(OC)c(OC)c1)C2O (configuration not stated)	1.1	-1.2
O=C1C2CCCCC2C(=O)N1c1ccc(Oc2ccccc2)cc1 (configuration not stated)	2	-1.6
Cn1c(=O)c2c(nc(Sc3ncccn3)n2Cc2ccccc2Cl)n(C)c1=O	1.6	-1.3
COc1ccc(OC)c(CN2CCN(Cc3ccc(OC)c(OC)c3)CC2)c1	0.58	-0.53
CCC(C)NC(=O)c1ccc(CN2C(=O)C(C)=C(c3ccc(C(C)C)cc3)S2(=O)=O)cc1 (configuration not stated)	1.3	.
CCOC(=O)c1c(-c2ccccc2)c(C(C)=O)c(=O)n(C)c1C	.	-0.26
COc1ccc(S(=O)(=O)NCCc2nnc3ccc(SCc4ccccc4F)nn23)cc1	-0.02	.
Brc1ccccc1-c1nn2c(C3COc4ccccc4O3)nnc2s1 (configuration not stated)	2.1	-0.36
Cn1c(C(=O)O)c(CC(=O)NC2CCCCCC2)c2ccccc21	.	0.21
COC(=O)CSc1ncc2c(n1)-c1ccccc1N(Cc1ccccc1)S2(=O)=O	0.45	.
COc1ccc(S(=O)(=O)N2CCN(CCO)CC2)cc1	.	-0.77
CCN(CC)c1ccc(NS(=O)(=O)c2cc(-c3csc(C)n3)ccc2C)c(C)c1	-0.61	.
COCCN1CC(C(=O)O)CC1=O (configuration not stated)	-1.1	-0.15
Cc1ccc(S(=O)(=O)N2CCN(C(=O)CSc3nnc(N)s3)C2)cc1	-1.3	0.45
CC(C)OC(=O)Cc1csc(-c2ccc(Cl)cc2)n1	.	-1.9
Cc1nc(C)c(CCNC(=O)c2ccco2)s1	0.69	.
Cc1cc(C)c2[nH]c(C3C(=O)c4ccccc4C3=O)cc(=O)c2c1	1.8	0.97
CN(C)CCCN(C(=O)c1cccs1)c1nc2ccc(Br)cc2s1	2.6	.

16 structures out of the list, sorted by SMILES length, highest first.
SMILES	TAR Tat displ	CDC25B CDK2 inh
COC(=O)c1cccc(N2C(=O)C3C4c5ccccc5C(C(C)=O)(c5ccccc54)C3C2=O)c1 (configuration not stated)	.	-1.9
CCC(C)NC(=O)c1ccc(CN2C(=O)C(C)=C(c3ccc(C(C)C)cc3)S2(=O)=O)cc1 (configuration not stated)	1.3	.
COc1ccc(CN(C(=O)c2nc(S(C)(=O)=O)ncc2Cl)C2CCS(=O)(=O)C2)cc1 (configuration not stated)	1.9	0.33
CCN(CC)c1ccc(NS(=O)(=O)c2cc(-c3csc(C)n3)ccc2C)c(C)c1	-0.61	.
COc1ccc(S(=O)(=O)NCCc2nnc3ccc(SCc4ccccc4F)nn23)cc1	-0.02	.
COC(=O)CSc1ncc2c(n1)-c1ccccc1N(Cc1ccccc1)S2(=O)=O	0.45	.
Cn1c(=O)c2c(nc(Sc3ncccn3)n2Cc2ccccc2Cl)n(C)c1=O	1.6	-1.3
Cc1cc(C)c2[nH]c(C3C(=O)c4ccccc4C3=O)cc(=O)c2c1	1.8	0.97
CCC12CN3CC(CC)(CN(C1)C3c1ccc(OC)c(OC)c1)C2O (configuration not stated)	1.1	-1.2
Cc1cc(-c2ccc(S(=O)(=O)N(C)C3CCCCC3)s2)on1	0.55	.
Cn1c(C(=O)O)c(CC(=O)NC2CCCCCC2)c2ccccc21	.	0.21
O=C1C2CCCCC2C(=O)N1c1ccc(Oc2ccccc2)cc1 (configuration not stated)	2	-1.6
O=C(CSCc1cc(=O)n2ccsc2n1)Nc1ccc(F)cc1	-0.36	.
COc1ccc(S(=O)(=O)N2CCN(CCO)CC2)cc1	.	-0.77
Cc1nc(C)c(CCNC(=O)c2ccco2)s1	0.69	.
COCCN1CC(C(=O)O)CC1=O (configuration not stated)	-1.1	-0.15

New compounds follow
SMILES	TAR Tat displ	CDC25B CDK2 inh
CCCNC(=O)C1=Cc2cc(Br)ccc2OC1	1	.
FC(F)(F)c1cc(-c2cccnc2)n[nH]1	.	-0.24
O=C1CCSc2ccccc2N1Cc1ccccc1	.	-1
Cn1c(SCC(O)c2ccccc2)nc2ccccc21 (configuration not stated)	-0.67	0.53
COc1ccc(-c2nnc3n2NC(c2ccc(Cl)cc2)CS3)cc1 (configuration not stated)	-0.35	-0.7
Cc1cc(-n2nnc(C(=O)O)c2C)ccc1Br	0.98	-1.6
CCN1CCN(CCN2C(=O)CCC2(C)C(=O)NCCC(C)C)CC1 (configuration not stated)	1.3	-0.05
CC(CCC(=O)O)[C@H]1CCC2C3C[C@H](O)[C@@H]4C[C@H](O)CC[C@]4(C)C3CC[C@@]21C (some centres not stated)	0.89	.
CC(C)Nc1nc(NC(C)C)nc(N(C)C#N)n1	0.6	0.51
Cn1c(SCC(=O)O)nc2cc(C(F)(F)F)cnc21	.	-1.8
COc1cccc(OC(=O)CSc2nnc(-c3ccccc3OC)o2)c1	0.36	-1.6
CCOC(=O)CN1CC23C=CC(O2)C(C(=O)Nc2ccc4c(c2)OCO4)C3C1=O (configuration not stated)	.	-1.2
Cc1nnc(NC(=O)CSc2nc(C3CC3)nc3c2c(=O)n(C)c(=O)n3C)s1	0.44	.
CC1CCN(CCNS(=O)(=O)c2ccc3c(c2)oc(=O)n3C)CC1	.	-1.2
CSc1ccc(NC(=O)N2CCN(c3nc4ccccc4s3)CC2)cc1	0.77	-0.04
O=c1oc2c(-c3ccccc3Cl)cc(O)cc2s1	1.6	-0.7
Cc1[nH]nc2c1C(c1cccc(Br)c1)C(C#N)=C(N)O2 (configuration not stated)	1.1	-0.43
O=c1[nH]c2ccc(S(=O)(=O)N3CCN(c4ccccc4)CC3)cc2[nH]c1=O	.	-0.51
CCC(=O)NCC(c1ccco1)S(=O)(=O)c1cccs1 (configuration not stated)	1.6	.
COCCNC(=O)CCCn1nc(C)n2c(cc3sccc32)c1=O	6	-1.3
CN(C)CCN(Cc1ccco1)C(=O)Cn1nc(Cc2ccncc2)c2ccccc2c1=O	-0.89	-0.78
COc1cccc2c1C(=O)c1c(O)c3c(c(O)c1C2=O)C[C@@](O)(C(=O)CO)C[C@@H]3O[C@H]1C[C@H](N)[C@@H](O)[C@H](C)O1	-6.9	.
c1ccc2cc(OCCN3CCOCC3)ccc2c1	.	-0.65
C=CCn1c(SCC(=O)N2CCOCC2)nc2sc3c(c2c1=O)CCCC3	.	-0.27
O=C(Cc1ccc(NC(=O)N2CCSc3ncccc32)cc1)NC1CCCC1	-1.3	.

Next part:
SMILES	TAR Tat displ	CDC25B CDK2 inh
CC(C)(C)N(OC(=O)c1ccccc1)C(=O)C(Cl)(Cl)Cl	.	-2.7
O=C(CCCn1sc2ccccc2c1=O)N1CCN(c2ccc(F)cc2)CC1	1.2	-2.8
O=C(Nc1ccc(Cl)cc1)c1[nH]nc2c1COc1ccccc1-2	-1.2	.
O=C(NCCC1=CCCCC1)C1CCCN(c2nnc(-n3cccc3)s2)C1 (configuration not stated)	1.6	-0.36
COc1cccc(/C=C/c2nc(C#N)c(NCCc3ccccc3)o2)c1	1.6	-0.78
Cc1ccc(C)c(Cn2c(=O)cc(C(F)(F)F)c3c(C)nn(C)c32)c1	0.26	.
O=C(Nc1ccc(F)c(F)c1)c1c(O)c2cccc3c2n(c1=O)CC3	2.4	.
O=C1N(Cc2ccc(F)cc2)c2ccccc2S(=O)(=O)N1Cc1ccccc1	1.4	.
O=C1NC(c2ccc3c(c2)OCO3)Nc2ccc([N+](=O)[O-])cc21 (configuration not stated)	.	0
CCN1C(=O)/C(=C2\SC(=S)N(CC3CCCO3)C2=O)c2ccccc21 (configuration not stated)	.	-2.8
CCC(C)(C)NS(=O)(=O)c1ccc(NC(=O)N2CCCC2)cc1	1.1	.
O=C(NCCCN1CCc2ccccc2C1)C1=Cc2sc3c(c2CS1)CCCC3	-2.1	.
CC1CCC2(CC1)NC(=S)N(C)N2 (configuration not stated)	.	0.31
CSc1ccc(/C=C/c2onc(C)c2[N+](=O)[O-])s1	.	0.56
COc1cc(OC)c(Nc2nc3ccc(C)cc3n3cnnc23)cc1Cl	-0.11	0.31
CCN1CCC(N(Cc2ccco2)C(=O)Nc2ccc(F)c(Cl)c2)CC1	1.9	.
O=C(C1CC1)N1CCc2cc(Br)cc(S(=O)(=O)NCC3CCCO3)c21 (configuration not stated)	.	-0.57
